# Screens as filed in PubChem.
# NOMO-1 viab: STK33 inhibitor candidate reducing NOMO-1 cell viability. inhibition, % (concentration not given with the values). NOMO-1 AML viability, CellTiter-Glo luminescence, 72 h. actives 7.5% (n = 37,000);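 active = most replicates above 80%; inconclusive = exactly half above 80%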;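 note: wells of about 30 µL received 25 nL stock; 0% = median of vehicle wells and 100% = reference inhibitor level; the first replicate is given; inactives centre near 10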
# Starred values were filed as active, the others as inactive; ? = inconclusive. Not all compounds are listed; the hit share may differ from the screen's.
SMILES,NOMO-1 viab
O=C(CC(C(=O)O)N1CCCCC1)Nc1cccc([N+](=O)[O-])c1 (stereo unspecified),0
C=C(C(=O)O)C(O)CCC1(C)C2CC3C(C2)C31C (stereo unspecified),9
COc1ccc(NC(=O)Nc2cccc3c2O[C@H](CN(C)Cc2ccc(Cl)c(Cl)c2)[C@@H](C)CN([C@H](C)CO)C3=O)cc1,103*
COc1ccc(NC(=O)Nc2ccc3c(c2)C(=O)N([C@@H](C)CO)C[C@H](C)[C@H](CN(C)S(=O)(=O)c2ccc(C)cc2)O3)cc1,?
COC(=O)c1cc(NC(=O)CSc2nc(C)cc(C)n2)cc(C(=O)OC)c1,114*
CC(C)NC(=O)Nc1ccc2c(c1)CC(=O)N([C@H](C)CO)C[C@@H](C)[C@@H](CN(C)CC1CCCCC1)O2,8
O=C(CSc1nc2ccccc2[nH]1)Nc1ccc(Br)cc1Cl,55
CC(=O)Nc1cccc(NC(=O)c2cc(-c3ccccn3)nc3ccc(Br)cc23)c1,35
C[C@@H]1CN([C@@H](C)CO)C(=O)Cc2cc(NS(C)(=O)=O)ccc2O[C@@H]1CN(C)Cc1ccc(Cl)c(Cl)c1,6
C[C@@H]1CN([C@@H](C)CO)C(=O)Cc2cc(NS(=O)(=O)c3ccccc3)ccc2O[C@@H]1CN(C)S(=O)(=O)c1ccc(Cl)cc1,33

# The last 2 entries of the section above open the next one:
SMILES,NOMO-1 viab
C[C@@H]1CN([C@@H](C)CO)C(=O)Cc2cc(NS(C)(=O)=O)ccc2O[C@@H]1CN(C)Cc1ccc(Cl)c(Cl)c1,6
C[C@@H]1CN([C@@H](C)CO)C(=O)Cc2cc(NS(=O)(=O)c3ccccc3)ccc2O[C@@H]1CN(C)S(=O)(=O)c1ccc(Cl)cc1,33
CC(=O)O[C@@H]1CC2C(C)(C)C=CC(=O)[C@]2(C)C2CC[C@@]3(C)[C@H](c4ccoc4)OC(=O)C4OC43[C@@]21C (stereo partly specified),28
CCCn1nnc(NC(=O)COc2ccc(C)cc2C)n1,-4
CC(C)NC(=O)N(C)C[C@H]1Oc2ccc(NC(=O)C3CCCCC3)cc2C(=O)N([C@H](C)CO)C[C@@H]1C,9
C[C@@H]1CN([C@@H](C)CO)C(=O)c2cc(NC(=O)Cc3ccccc3)ccc2O[C@@H]1CN(C)Cc1ccccc1,25
C[C@@H]1CN([C@H](C)CO)C(=O)Cc2cc(NC(=O)Cc3cn(C)c4ccccc34)ccc2O[C@@H]1CN(C)Cc1ccc2c(c1)OCO2,18
C[C@H]1CN([C@@H](C)CO)C(=O)c2cccc(NC(=O)c3cnccn3)c2O[C@@H]1CN(C)C,-10
C[C@@H]1O[C@@H](O[C@H]2[C@H](Oc3cc(O)c4c(c3)O[C@H](c3ccc(O)cc3)CC4=O)O[C@H](CO)[C@@H](O)[C@@H]2O)[C@H](O)[C@H](O)[C@H]1O,21
CC(=O)N/C(=C/c1ccc(Cl)c(Cl)c1)C(=O)O,17
C[C@@H]1CN([C@H](C)CO)C(=O)c2cc(NC(=O)C3CCCCC3)ccc2O[C@@H]1CN(C)C,-16
COc1ccc(NC(=O)Nc2ccc3c(c2)C(=O)N([C@H](C)CO)C[C@H](C)[C@H](CN(C)C(=O)Nc2cccc4ccccc24)OCCCC[C@@H](C)O3)cc1,30
Cc1cc(C)c2c(n1)sc1c(=O)n(/N=C/c3ccccc3)cnc12,12
O=C(NCCCn1ccnc1)c1nn2c(C(F)(F)F)cc(-c3ccccc3)nc2c1Cl,-19
C[C@H]1CN([C@@H](C)CO)C(=O)c2cc(NC(=O)Nc3cccc4ccccc34)ccc2O[C@@H]1CN(C)S(=O)(=O)c1ccccc1,36
CCc1ccc2c(c1)=C(c1[nH]c(=S)[nH]c1O)C(=O)N=2,27
COC(=O)c1c(-c2cccc(C)c2)csc1NC(=O)c1ccccc1[N+](=O)[O-],2
CC(=O)N(CC(C)C(=O)O)c1c(I)cc(I)c(N)c1I (stereo unspecified),-12
Cn1c(SCC(=O)Nc2ccc3c(c2)OCCO3)nnc1-c1cnccn1,-8
CC(=O)OCC1OC(n2ccc(=O)[nH]c2=O)C(OC(C)=O)C1OC(C)=O (stereo unspecified),5
COc1ccc(NC(=O)N(C)C[C@H]2OCCCC[C@@H](C)Oc3ccc(NS(C)(=O)=O)cc3C(=O)N([C@H](C)CO)C[C@@H]2C)cc1,-1
C[C@H]1CN([C@@H](C)CO)C(=O)c2cccc(NC(=O)c3ccc(-c4nccs4)cc3)c2O[C@H]1CN(C)S(=O)(=O)c1ccc(Cl)cc1,9
FC(F)(F)c1cc(C#CCN2CCCCC2)cc(C(F)(F)F)c1,38
C[C@H](CO)N1C[C@H](C)[C@H](CN(C)C)Oc2ccc(NS(C)(=O)=O)cc2C1=O,21
Cn1c(SCc2nn[nH]n2)nc2c1c(=O)n(Cc1ccccc1Cl)c(=O)n2C,3
CN(C)CCCN1C(=O)C(=O)C(C(=O)c2ccco2)C1c1cccc([N+](=O)[O-])c1 (stereo unspecified),-4
C[C@H](CO)N1C[C@H](C)[C@H](CN(C)Cc2ccc(C(F)(F)F)cc2)Oc2ccc(NC(=O)CCC(F)(F)F)cc2C1=O,33
COC(=O)c1ccc(NC(=O)CSc2nnnn2-c2ccccc2OC)cc1,-14
C[C@H](CO)N1C[C@H](C)[C@@H](CN(C)CC2CC2)Oc2ccc(NS(=O)(=O)c3ccc(F)cc3)cc2C1=O,3
O=C(Oc1ccccc1)N1CCCC1,5
Cc1nn(CC(=O)NCc2cccnc2)c(C)c1[N+](=O)[O-],-9
C[C@H]1CN([C@@H](C)CO)C(=O)c2cc(NS(=O)(=O)c3cn(C)cn3)ccc2O[C@@H]1CN(C)Cc1ccc(Cl)c(Cl)c1,-6

# The final 7 compounds of the section above are carried over, then new ones follow.
SMILES,NOMO-1 viab
CN(C)CCCN1C(=O)C(=O)C(C(=O)c2ccco2)C1c1cccc([N+](=O)[O-])c1 (stereo unspecified),-4
C[C@H](CO)N1C[C@H](C)[C@H](CN(C)Cc2ccc(C(F)(F)F)cc2)Oc2ccc(NC(=O)CCC(F)(F)F)cc2C1=O,33
COC(=O)c1ccc(NC(=O)CSc2nnnn2-c2ccccc2OC)cc1,-14
C[C@H](CO)N1C[C@H](C)[C@@H](CN(C)CC2CC2)Oc2ccc(NS(=O)(=O)c3ccc(F)cc3)cc2C1=O,3
O=C(Oc1ccccc1)N1CCCC1,5
Cc1nn(CC(=O)NCc2cccnc2)c(C)c1[N+](=O)[O-],-9
C[C@H]1CN([C@@H](C)CO)C(=O)c2cc(NS(=O)(=O)c3cn(C)cn3)ccc2O[C@@H]1CN(C)Cc1ccc(Cl)c(Cl)c1,-6
COc1ccc(CN(C)C[C@@H]2Oc3ccc(NC(=O)Nc4c(C)noc4C)cc3C(=O)N([C@@H](C)CO)C[C@@H]2C)cc1,8
C[C@@H]1CN([C@H](C)CO)C(=O)c2cc(NC(=O)CCCN(C)C)ccc2O[C@H]1CN(C)Cc1ccncc1,2
Cc1noc(C)c1NC(=O)Nc1ccc2c(c1)CC(=O)N([C@H](C)CO)C[C@@H](C)[C@@H](CN(C)S(=O)(=O)c1cn(C)cn1)O2,27
COC(=O)c1ccc(NC(=O)CN2C(=O)CN(c3ccc(Br)cc3)C2=O)cc1,2
C[C@H](CO)N1C[C@H](C)[C@H](CN(C)CC2CCCCC2)Oc2c(NS(=O)(=O)c3ccc(Cl)cc3)cccc2C1=O,6
C[C@H]1CN([C@@H](C)CO)C(=O)c2cc(NC(=O)C3CC3)ccc2O[C@H]1CN(C)C(=O)Nc1ccc2c(c1)OCO2,4
C[C@H](CO)N1C[C@H](C)[C@H](CN(C)S(=O)(=O)c2ccccc2)Oc2ccc(NC(=O)Cc3ccccc3)cc2CC1=O,-13
COc1ccc(CN(C)C[C@@H]2Oc3ccc(NS(=O)(=O)c4cccs4)cc3C(=O)N([C@@H](C)CO)C[C@H]2C)cc1,9
CNC[C@@H]1Oc2c(NC(=O)Nc3c(C)noc3C)cccc2C(=O)N([C@H](C)CO)C[C@@H]1C,-1
CCOC(=O)c1c(NC(=O)CC2NCCNC2=O)sc2c1CCCC2 (stereo unspecified),1
O=C(CSc1nc2ccccc2[nH]1)Nc1cccc(I)c1,27
COc1ccc(NC(=O)Nc2cccc3c2O[C@@H](CN(C)Cc2ccncc2)[C@@H](C)CN([C@H](C)CO)C3=O)cc1,21
C[C@@H]1CN([C@@H](C)CO)C(=O)Cc2cc(NC(=O)CCC(F)(F)F)ccc2O[C@@H]1CN(C)Cc1ccc(Oc2ccccc2)cc1,?
COc1ccc(S(=O)(=O)N(C)C[C@H]2Oc3ccc(NS(=O)(=O)c4cccs4)cc3CC(=O)N([C@H](C)CO)C[C@H]2C)cc1,-3
COc1ccc(NC(=O)Nc2cccc3c2O[C@H](CN(C)S(=O)(=O)c2ccc(Cl)cc2)[C@H](C)CN([C@@H](C)CO)C3=O)cc1,15
COc1ccc(-c2nc3ccccc3s2)cc1NC(=S)NC(=O)COc1ccc(C)cc1,?
COc1cc(-c2nnn(CC(=O)Nc3ccccc3C)n2)cc(OC)c1OC,6
CS(=O)(=O)N(CC(=O)Nc1ccc(Oc2ccccc2)cc1)C1CCCCC1,33
C[C@@H]1CN([C@H](C)CO)C(=O)c2cc(NC(=O)C3CC3)ccc2O[C@H]1CN(C)S(=O)(=O)c1cccs1,19
CCCCC1(Cc2ccccc2)C(=O)Nc2ccccc2C1=O (stereo unspecified),44
COc1ccc(CN(C)C[C@@H]2Oc3c(NC(=O)NC4CCCCC4)cccc3C(=O)N([C@H](C)CO)C[C@@H]2C)cc1,30
COc1ccc(-c2nnc(SCC(=O)Nc3cccc(F)c3)n2C)cc1,-6
Cc1nc2ccccc2nc1OCc1cccc([N+](=O)[O-])c1,42
COc1ccc(S(=O)(=O)Nc2ccc3c(c2)C(=O)N([C@H](C)CO)C[C@H](C)[C@@H](CN(C)C(=O)Nc2ccc(C(F)(F)F)cc2)O3)cc1,14
CC(C)CC(C(=O)Oc1ccc2c3c(c(=O)oc2c1)CCC3)N1C(=O)c2ccccc2C1=O (stereo unspecified),-9
COc1ccc(NC(=O)Nc2ccc3c(c2)C(=O)N([C@@H](C)CO)C[C@H](C)[C@H](CN(C)C(=O)Nc2c(C)noc2C)O3)cc1,-1
CCOc1cc(S(=O)(=O)NC2CC(C)(C)NC(C)(C)C2)ccc1Cl,25
COc1ccc(CN(C)C[C@H]2Oc3ccc(NC(=O)Nc4ccc(OC)cc4)cc3CC(=O)N([C@H](C)CO)C[C@H]2C)cc1,-7
CC(C(=O)O)c1ccc(N2Cc3ccccc3C2=O)cc1 (stereo unspecified),3
Cc1cc(C)nc(NS(=O)(=O)c2ccc(NC(=O)c3ccco3)cc2)n1,10
O=C(CSc1nnc(-c2cccc(F)c2)n1-c1ccccc1)NC1CCCC1,16
Cc1cccc(NC(=O)CCc2nc(-c3ccc(Cl)cc3)no2)c1C,40
CC(=O)O[C@@H]1CC(C)=C2[C@H]1[C@H](C)CC[C@H]2/C=C(\C)C(=O)O,21
Cc1cccc(NC(=O)Cn2cnc3sc(-c4ccccc4)cc3c2=O)c1,13
CCOC(=O)c1c(NC(=O)Cn2cnc3ccccc3c2=O)sc(C)c1C,43
Cc1ccc(OCC(O)Cn2c(C)nc3ccccc32)cc1 (stereo unspecified),51
C[C@H](CO)N1C[C@H](C)[C@H](CN(C)CC2CC2)Oc2c(NC(=O)c3ccc(-c4nccs4)cc3)cccc2C1=O,14
C[C@@H]1CN([C@H](C)CO)C(=O)Cc2cc(NC(=O)c3ccncc3)ccc2O[C@H]1CN(C)S(=O)(=O)c1cccs1,14
Cc1c(C)c(C)c(CN2C(=O)c3ccccc3C2=O)c(C)c1C,18
C[C@@H]1CN([C@@H](C)CO)C(=O)c2cc(NC(=O)CCCCCC(=O)Nc3ccccc3N)ccc2O[C@H]1CN(C)C(=O)Nc1ccccc1,0
C[C@H]1CN([C@@H](C)CO)C(=O)c2cc(NS(=O)(=O)c3cccs3)ccc2O[C@@H]1CN(C)C(=O)Nc1cccc2ccccc12,36
COc1ccc(S(=O)(=O)N(C)C[C@H]2Oc3c(NS(=O)(=O)c4ccc(C)cc4)cccc3C(=O)N([C@@H](C)CO)C[C@@H]2C)cc1,22
O=C(CSc1nc2c(c(C(F)(F)F)n1)CCc1ccccc1-2)Nc1ccc(Cl)cc1,-11
Cc1c(Cl)cccc1NC(=O)CSc1nc2sc3c(c2c(=O)[nH]1)CCCC3,16
C[C@@H]1CN([C@H](C)CO)C(=O)c2cc(NC(=O)CCCN(C)C)ccc2O[C@H]1CN(C)Cc1ccc(C(F)(F)F)cc1,12
Cc1ccc(S(=O)(=O)N(C)C[C@H]2Oc3ccc(NS(=O)(=O)c4c(C)noc4C)cc3C(=O)N([C@@H](C)CO)C[C@@H]2C)cc1,-9
O=C(CSc1nnc2n1CCCN2)c1ccccc1,28
C[C@H](CO)N1C[C@H](C)[C@@H](CN(C)C(=O)Nc2ccc(F)cc2)Oc2c(NS(=O)(=O)c3ccc(F)cc3)cccc2C1=O,0
C=C(C(=O)O)[C@@H]1CC[C@@]2(C)CCC[C@@](C)(O)[C@@H]2C1,9
O=C(/C=C/Oc1ccc(Cl)cc1)c1ccc(Br)cc1,117*

# More entries
SMILES,NOMO-1 viab
O=C(Nc1ccccc1)c1ccc(CSc2nnc(-c3ccncc3)n2-c2ccccc2)cc1,33
C[C@H]1CN([C@@H](C)CO)C(=O)c2cccc(NC(=O)c3cnccn3)c2O[C@H]1CN(C)Cc1ccncc1,19
C[C@@H]1CN([C@H](C)CO)C(=O)c2cc(NC(=O)Nc3ccc(F)cc3)ccc2O[C@@H]1CN(C)C(=O)Nc1cccc2ccccc12,60
COC(=O)C(C(C)c1c[nH]c2ccccc12)[N+](=O)[O-] (stereo unspecified),23
